TRPML1 agonist: agonists of human TRPML1 channel; Q9GZU1; TRPML1-expressing cells, Ca2+ dye fluorescence, FDSS; host cell line not named in the record; reference of the full effect not given here; activation, % (concentration not given with the values); 410,000 tested, 0.12% active; in the data active = activation above about 50%; inconclusive = about 30% to 50%; inactive = below about 30%; further: 0% is about no effect; the text of the record puts the active cut at 80%
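In this qHTS format, compounds were pin-transferred onto Ca8-dye-loaded TRPML1-DL cells induced with Tet overnight, and intracellular Ca2+ fluorescence was recorded kinetically for 110 s after a 10 s baseline. A subsequent 4uM final 54-4 (EC80) addition followed by a second 110 s read served as the antagonist phase.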
Six1-Eya2 inh: inhibitors of human Six1/Eya2 interaction; AlphaScreen GST-Six1/His-Eya2 binding, biochemical; hits give low values; control for the full effect not named in the record; Q15475+O00167; 360,000 tested, 0.56% active; AID 651725; activity change, % (test concentration not listed); in the data active = activity change below about -65%; inconclusive = about -30% to -65%; inactive = above about -30%; further: on the % scale 0 is the no-effect control and ±100 the full control effect; compound concentration not given in the record
Target sequence (O00167 whole entry, looked up): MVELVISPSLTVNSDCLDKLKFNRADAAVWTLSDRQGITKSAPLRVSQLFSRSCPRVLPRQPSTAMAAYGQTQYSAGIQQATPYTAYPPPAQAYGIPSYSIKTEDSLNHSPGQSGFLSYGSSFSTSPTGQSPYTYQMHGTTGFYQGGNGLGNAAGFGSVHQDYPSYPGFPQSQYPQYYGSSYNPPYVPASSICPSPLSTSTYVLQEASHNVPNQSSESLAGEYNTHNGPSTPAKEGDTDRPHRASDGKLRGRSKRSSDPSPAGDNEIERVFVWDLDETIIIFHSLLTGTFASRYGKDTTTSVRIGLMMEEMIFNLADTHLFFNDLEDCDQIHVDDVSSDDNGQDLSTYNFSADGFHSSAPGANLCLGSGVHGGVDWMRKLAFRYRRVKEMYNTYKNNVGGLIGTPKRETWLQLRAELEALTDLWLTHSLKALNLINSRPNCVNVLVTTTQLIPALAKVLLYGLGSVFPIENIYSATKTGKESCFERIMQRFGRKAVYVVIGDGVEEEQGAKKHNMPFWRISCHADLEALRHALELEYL
Target sequence (Q15475 whole entry, looked up): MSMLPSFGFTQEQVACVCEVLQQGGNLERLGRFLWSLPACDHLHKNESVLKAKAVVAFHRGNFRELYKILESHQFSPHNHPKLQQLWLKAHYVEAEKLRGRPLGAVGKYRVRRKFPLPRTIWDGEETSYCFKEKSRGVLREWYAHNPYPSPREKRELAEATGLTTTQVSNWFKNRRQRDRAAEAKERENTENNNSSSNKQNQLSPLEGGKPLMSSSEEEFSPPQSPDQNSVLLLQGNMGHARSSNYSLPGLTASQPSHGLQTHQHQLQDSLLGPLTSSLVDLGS
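Six1/Eya2 binding was read as AlphaScreen signal after compounds were pinned into GST-Six1 plus His-tagged Eya2 (5X stock 250/500 nM) in pH 8.0 Tris/NaCl/TCEP buffer, beads added, then incubated 1 h, 37 C, dark.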
CtBP-E1A inh: inhibitors of CtBP/E1A interaction | AID 651724 | AlphaScreen GST-E1A/His-CtBP binding, 1536-well; hits give low values; control for the full effect not named in the record | 340,000 tested, 0.49% active | activity change, % (test concentration not listed); in the data active means activity change below about -65%; inconclusive means about -30% to -65%; inactive means above about -30%; further: on the % scale 0 is the no-effect control and ±100 the full control effect; compound concentration not given in the record
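Protein mix (5X: 125 nM each GST-E1A, His-CtBP) was incubated with pinned compound 2 h at 37 deg C in dark, in 50 mM Tris pH 8.0 buffer with 300 mM NaCl. Glutathione donor and nickel acceptor beads followed; AlphaScreen signal read after 1 h.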
D2 PAM: human D2 receptor positive allosteric modulation. P14416. DiscoveRx D2 beta-arrestin cells, luminescence, 90 min; 100% = 57 uM dopamine signal. potentiation, % (concentration not given with the values). 360,000 tested, 0.23% active. AID 624464; active = potentiation of 50% or more; inconclusive = 30% to 50%; inactive = 30% or less;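 further: compound concentration not given in the record; tested on top of an EC20 dose of dopamine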
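PathHunter beta-arrestin assay in DiscoveRx D2 cells. Compounds were added with an EC20 of dopamine (50 nM final) for 90 min at 37 deg C. Luminescence was read 1 h after detection reagent, with 57 uM dopamine as the EC100 control.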
PINK1 expr mod: modulators of PINK1 expression. PINK1 immunofluorescence, high-content cytometry, 24 h. Potency, µM (doses to about 76.6 µM), inactives show top-dose activation (PINK1 increase), hits mostly activators. 410,000 tested, 0.2% active. AID 624263; active = well fitted activation curve with a large enough effect; inconclusive = small, poorly fitted or top-dose-only effect; inactive = flat fitted curve, though single readings scatter; cell line not stated here;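 further: potency means the concentration at half of the fitted maximal effect; % of control where 0% means no effect; nearly all actives have a fitted effect of over 65% in size; a mitochondrial uncoupler was the plate control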
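Fluorescence from anti-PINK1 antibody, together with nuclear and cell stains, was scanned on a laser-scanning cytometer. Before staining, stable-line cells were incubated 24 hours with compounds at 5 concentrations; primary antibody 12 h at 10 degrees C.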
D2 agonist: agonists of human D2 dopamine receptor (beta-arrestin); P14416; DiscoveRx PathHunter D2 beta-arrestin, luminescence, 90 min; 100% = 57 uM dopamine signal; 360,000 tested, 0.084% active; activation, % (test concentration not listed); in the data active = activation above about 40%; inconclusive = about 15% to 40%; inactive = below about 15%; further: compound concentration not given in the record; the text of the record calls up to 30% inactive
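DiscoveRx PathHunter D2 beta-arrestin cells (2,100/well) attached overnight, then compound-stimulated 90 min at 37 C in HBSS/10 mM HEPES/0.1% Tween-20 buffer; beta-galactosidase complementation read by luminescence after 1 h at ambient temperature. Dopamine 57 uM final (EC100) as control.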
Numbers without * were called inactive; [ ] = remark or other dose.

How did COc1ccc(F)cc1S(=O)(=O)Nc1cccc(C(=O)O)c1 do in these assays?
TRPML1 agonist: -0.6; Six1-Eya2 inh: 11; CtBP-E1A inh: 7; D2 PAM: -3; PINK1 expr mod: 1.1%; D2 agonist: -1.4

What do the screens show for `Cc1c(NC(=O)CSc2ccc3ccccc3n2)c(=O)n(-c2ccccc2)n1C`?
TRPML1 agonist: 4.5; Six1-Eya2 inh: 2; CtBP-E1A inh: 2; D2 PAM: -2; PINK1 expr mod: 0.1%; D2 agonist: 7.6

How did COCCCNC(=O)/C(C#N)=c1\s/c(=C\c2ccccc2OC(F)F)c(=O)n1CCCOC do in these assays?
TRPML1 agonist: 0.0; Six1-Eya2 inh: -9; CtBP-E1A inh: 9; D2 PAM: -8; PINK1 expr mod: inconclusive; D2 agonist: -3.5

How did O=C(CSc1nnc(CNC(=O)c2ccc(F)cc2)o1)Nc1ccc2c(c1)OCO2 do in these assays?
TRPML1 agonist: -0.1; Six1-Eya2 inh: -5; CtBP-E1A inh: 4; D2 PAM: 2; PINK1 expr mod: -0.8%; D2 agonist: -6.5

What do the screens show for `CCC(C)c1ccc(OCC(=O)NNC(=O)C2CCCCC2)cc1` (stereo not drawn)?
TRPML1 agonist: -0.7; Six1-Eya2 inh: -2; CtBP-E1A inh: -10; D2 PAM: -16; PINK1 expr mod: 3.6%; D2 agonist: -1.5

Results for O=C(COc1ccc(Nc2ccccc2)cc1)Nc1ccncc1 ?
TRPML1 agonist: 0.3; Six1-Eya2 inh: -14; CtBP-E1A inh: -24; D2 PAM: 2; PINK1 expr mod: 4.0%; D2 agonist: 8.6

What do the screens show for `COc1ccccc1CCNC(=O)C(=O)NCCC1CCCCN1S(=O)(=O)c1cccs1` (stereo not drawn)?
TRPML1 agonist: -0.6; Six1-Eya2 inh: -3; CtBP-E1A inh: -3; D2 PAM: -2; PINK1 expr mod: -0.8%; D2 agonist: 4.0

How did COc1ccc2c3c1O[C@H]1C[C@@H](O)C=C[C@@]31CCN(C)C2 do in these assays?
TRPML1 agonist: -0.6; Six1-Eya2 inh: 5; CtBP-E1A inh: 7; D2 PAM: 5; PINK1 expr mod: -0.2%; D2 agonist: -1.1

Results for Cc1cc(OCC(=O)N2CCC(C(N)=O)CC2)c2c(C)c(C)c(=O)oc2c1 ?
Six1-Eya2 inh: 23; CtBP-E1A inh: 1; D2 PAM: -25; PINK1 expr mod: 0.3%; D2 agonist: -2.2

What do the screens show for `NC(=O)CC(NC(=O)c1ccccc1)c1ccc(NC2CCC2)c([N+](=O)[O-])c1` (stereo not drawn)?
TRPML1 agonist: 0.1; Six1-Eya2 inh: -10; CtBP-E1A inh: -4; D2 PAM: -9; PINK1 expr mod: 0.6%; D2 agonist: -6.1

At a glance, part of the list above:
Results for Cc1cc(OCC(=O)N2CCC(C(N)=O)CC2)c2c(C)c(C)c(=O)oc2c1 ?
Six1-Eya2 inh: 23; CtBP-E1A inh: 1; D2 PAM: -25; PINK1 expr mod: 0.3%; D2 agonist: -2.2

What do the screens show for `NC(=O)CC(NC(=O)c1ccccc1)c1ccc(NC2CCC2)c([N+](=O)[O-])c1` (stereo not drawn)?
TRPML1 agonist: 0.1; Six1-Eya2 inh: -10; CtBP-E1A inh: -4; D2 PAM: -9; PINK1 expr mod: 0.6%; D2 agonist: -6.1

Structures listed so far with an aryl thioether with sulfur outside any ring (two):
What do the screens show for `Cc1c(NC(=O)CSc2ccc3ccccc3n2)c(=O)n(-c2ccccc2)n1C`?
TRPML1 agonist: 4.5; Six1-Eya2 inh: 2; CtBP-E1A inh: 2; D2 PAM: -2; PINK1 expr mod: 0.1%; D2 agonist: 7.6

How did O=C(CSc1nnc(CNC(=O)c2ccc(F)cc2)o1)Nc1ccc2c(c1)OCO2 do in these assays?
TRPML1 agonist: -0.1; Six1-Eya2 inh: -5; CtBP-E1A inh: 4; D2 PAM: 2; PINK1 expr mod: -0.8%; D2 agonist: -6.5

(continued)
What do the screens show for `O=C(CC1CS(=O)(=O)CC1CC(=O)Oc1ccccc1F)Oc1ccccc1F` (stereo not drawn)?
TRPML1 agonist: 2.3; Six1-Eya2 inh: 7; CtBP-E1A inh: 6; D2 PAM: -14; PINK1 expr mod: -1.9%; D2 agonist: 3.5

Results for CC1Cc2ccccc2N1C(=O)CSc1nnc(-c2ccc(S(=O)(=O)N3CCOCC3)cc2)n1C (stereo not drawn) ?
TRPML1 agonist: 0.5; Six1-Eya2 inh: -4; CtBP-E1A inh: 1; D2 PAM: -1; PINK1 expr mod: -0.2%; D2 agonist: -0.2

Results for Cc1ccn2c(c1)nc(=O)c1cc(S(=O)(=O)N3CCOCC3)ccc12 ?
TRPML1 agonist: 0.4; Six1-Eya2 inh: -14; CtBP-E1A inh: -26; D2 PAM: -3; PINK1 expr mod: 0.6%; D2 agonist: 2.4

What do the screens show for `COc1ccccc1NC(=O)c1ccc(CS(=O)(=O)c2ccc(C)cc2)cc1`?
TRPML1 agonist: 0.5; Six1-Eya2 inh: 9; CtBP-E1A inh: 6; D2 PAM: 2; PINK1 expr mod: 1.8%; D2 agonist: -0.2

Results for CC(=O)Nc1ccc(S(=O)(=O)N2CCSC2C(=O)O)cc1 (stereo not drawn) ?
TRPML1 agonist: -0.2; Six1-Eya2 inh: -1; CtBP-E1A inh: 9; D2 PAM: 4; PINK1 expr mod: -4.5%[38.3 µM]; D2 agonist: -0.1

Results for Cc1noc(C)c1CSCC(=O)Nc1nc2ccc(S(C)(=O)=O)cc2s1 ?
TRPML1 agonist: 0.3; Six1-Eya2 inh: -5; CtBP-E1A inh: 0; D2 PAM: -5; PINK1 expr mod: 0.1%; D2 agonist: 3.2

Results for O=c1nc2cccc3c2=c(/c1=C(\O)c1ccccc1)c1ccccc1c3=O ?
TRPML1 agonist: 0.9; Six1-Eya2 inh: -25; CtBP-E1A inh: -9; D2 PAM: 1; PINK1 expr mod: 5.7%; D2 agonist: -1.2

What do the screens show for `CC(C)(C)n1cnc2cc(NS(=O)(=O)c3ccc(Br)cc3)ccc21`?
TRPML1 agonist: 1.6; Six1-Eya2 inh: 8; CtBP-E1A inh: -1; D2 PAM: 0; PINK1 expr mod: 7.2%; D2 agonist: -0.5

What do the screens show for `CCCCCC(=O)Nc1cccc(C2=NOC3(C2)C[C@H](C(N)=O)N(C(=O)COc2ccc(Cl)cc2)C3)c1` (stereo partly drawn)?
TRPML1 agonist: 1.7; Six1-Eya2 inh: -2; CtBP-E1A inh: -6; D2 PAM: 4; PINK1 expr mod: -1.1%; D2 agonist: -0.3

How did O=C(C=Cc1ccco1)c1ccc([N+](=O)[O-])cc1 do in these assays?
TRPML1 agonist: -1.1; Six1-Eya2 inh: 2; CtBP-E1A inh: 0; D2 PAM: 1; PINK1 expr mod: 4.2%; D2 agonist: 5.3

What do the screens show for `CC1CN(c2ncnc3c2c(-c2ccccc2)cn3-c2ccc(F)cc2)CC(C)O1` (stereo not drawn)?
TRPML1 agonist: 8.5; Six1-Eya2 inh: -9; CtBP-E1A inh: -4; D2 PAM: -25; PINK1 expr mod: 8.3%; D2 agonist: -20

What do the screens show for `O=C(Nc1nc2ccccc2n1CCN1CCCCC1)c1ccco1`?
TRPML1 agonist: 1.3; Six1-Eya2 inh: -27; CtBP-E1A inh: -15; D2 PAM: -29; PINK1 expr mod: -0.7%; D2 agonist: -1.4

How did CCN(CC)c1ccc(/C=C2\CCC(/C=C(\C#N)C(=O)Nc3ccccc3F)=C2N2CCOCC2)cc1 do in these assays?
TRPML1 agonist: 0.2; Six1-Eya2 inh: -17; CtBP-E1A inh: -22; D2 PAM: -2; PINK1 expr mod: 0.5%; D2 agonist: -3.2

What do the screens show for `NC(=O)Nc1ccc(F)cc1`?
TRPML1 agonist: 4.6; Six1-Eya2 inh: 7; CtBP-E1A inh: 1; D2 PAM: 0; PINK1 expr mod: -0.8%; D2 agonist: -1.1

Results for COc1ccc(-c2cc3ccc(O)cc3oc2=O)cc1 ?
TRPML1 agonist: 0.7; Six1-Eya2 inh: 19; D2 PAM: -1; PINK1 expr mod: 0.6%; D2 agonist: 5.9

Results for Cc1ccc2[nH]c(C(=O)N3CCN(C(c4ccccc4)c4ccccc4)CC3)cc2c1 ?
TRPML1 agonist: -0.4; Six1-Eya2 inh: 0; CtBP-E1A inh: 2; D2 PAM: 0; PINK1 expr mod: 4.1%; D2 agonist: 1.3

How did CCOC(=O)C1CCCN(C(=O)COc2ccc(C(C)(C)C)cc2)CC1 (stereo not drawn) do in these assays?
TRPML1 agonist: -1.3; Six1-Eya2 inh: 0; CtBP-E1A inh: 6; D2 PAM: -5; PINK1 expr mod: 2.4%; D2 agonist: 4.2

Results for Cc1ccc(C(=O)COC(=O)c2cccc([N+](=O)[O-])c2)s1 ?
TRPML1 agonist: 0.2; Six1-Eya2 inh: -4; D2 PAM: 0; PINK1 expr mod: 0.0%; D2 agonist: -1.5

Results for CCCCOC(C)n1cc(F)c(=O)[nH]c1=O (stereo not drawn) ?
TRPML1 agonist: -0.1; Six1-Eya2 inh: -5; CtBP-E1A inh: -4; D2 PAM: -16; PINK1 expr mod: 2.7%; D2 agonist: -2.9

Results for C#CCOCCOCCOCCNc1nc(N2CCN(C(=O)[C@H](C(C)C)n3cc(CCO)nn3)CC2)nc(N2CCN(C(=O)[C@H]([C@@H](C)CC)n3cc(CCCN=C(N)N)nn3)CC2)n1 ?
TRPML1 agonist: -0.9; Six1-Eya2 inh: 6; CtBP-E1A inh: 5; D2 PAM: -37; PINK1 expr mod: 0.7%; D2 agonist: -1.7

How did CCS(=O)(=O)Nc1ccc(C2=NN(C(C)=O)C(c3cccs3)C2)cc1 (stereo not drawn) do in these assays?
TRPML1 agonist: 0.0; Six1-Eya2 inh: 7; CtBP-E1A inh: -2; D2 PAM: 1; PINK1 expr mod: 4.3%; D2 agonist: -3.8

What do the screens show for `CCCC(=O)Nc1ccc(S(=O)(=O)Nc2cc(OC)ncn2)cc1`?
TRPML1 agonist: -0.3; Six1-Eya2 inh: 8; CtBP-E1A inh: 5; D2 PAM: -7; PINK1 expr mod: 0.2%; D2 agonist: -0.8

How did Cc1c(C(=O)NCCc2ccc3c(c2)OCCO3)oc2ccccc12 do in these assays?
TRPML1 agonist: 0.3; Six1-Eya2 inh: -1; CtBP-E1A inh: 7; D2 PAM: -4; D2 agonist: -2.3

What do the screens show for `COc1cccc(C(=O)c2c(C)c(CCC#N)n3ccccc23)c1OC`?
TRPML1 agonist: -1.2; Six1-Eya2 inh: -1; CtBP-E1A inh: 2; D2 PAM: -4; PINK1 expr mod: -1.6%; D2 agonist: -1.8

How did COc1ccc(S(=O)(=O)Nc2ccc3oc(C)c(C(=O)O)c3c2)cc1 do in these assays?
TRPML1 agonist: 0.0; Six1-Eya2 inh: 9; CtBP-E1A inh: -8; D2 PAM: -8; PINK1 expr mod: 0.0%; D2 agonist: 2.5

What do the screens show for `Cc1ccc(NS(=O)(=O)c2cccc(C(=O)Nc3cc(C)on3)c2)cc1`?
TRPML1 agonist: -0.3; Six1-Eya2 inh: 7; CtBP-E1A inh: 0; D2 PAM: -18; PINK1 expr mod: 1.5%; D2 agonist: -2.5

Results for Nc1c(C(=O)N2CCCCCC2)oc2ccccc12 ?
TRPML1 agonist: 4.7; Six1-Eya2 inh: -12; D2 PAM: -10; PINK1 expr mod: -0.6%; D2 agonist: -4.0
